# Source: PubChem
# KCNQ2 inh: KCNQ2 potassium channel inhibitors, primary screen, cell-based, CHO-K1, FluxOR thallium flux, B-score (AID 2156). 310,000 compounds, 1.1% hits. 20 min; stronger effect = lower value; only compounds with negative scores are shown here; some inactives read as strong as hits. B-score at 10 µM;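 active means fluorescence ratio B-score at most minus 3 library SDs, with starting brightness B-score within 2 library SDs, cut at about -5.5 in these data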
# Target sequence (O88943 whole entry, looked up): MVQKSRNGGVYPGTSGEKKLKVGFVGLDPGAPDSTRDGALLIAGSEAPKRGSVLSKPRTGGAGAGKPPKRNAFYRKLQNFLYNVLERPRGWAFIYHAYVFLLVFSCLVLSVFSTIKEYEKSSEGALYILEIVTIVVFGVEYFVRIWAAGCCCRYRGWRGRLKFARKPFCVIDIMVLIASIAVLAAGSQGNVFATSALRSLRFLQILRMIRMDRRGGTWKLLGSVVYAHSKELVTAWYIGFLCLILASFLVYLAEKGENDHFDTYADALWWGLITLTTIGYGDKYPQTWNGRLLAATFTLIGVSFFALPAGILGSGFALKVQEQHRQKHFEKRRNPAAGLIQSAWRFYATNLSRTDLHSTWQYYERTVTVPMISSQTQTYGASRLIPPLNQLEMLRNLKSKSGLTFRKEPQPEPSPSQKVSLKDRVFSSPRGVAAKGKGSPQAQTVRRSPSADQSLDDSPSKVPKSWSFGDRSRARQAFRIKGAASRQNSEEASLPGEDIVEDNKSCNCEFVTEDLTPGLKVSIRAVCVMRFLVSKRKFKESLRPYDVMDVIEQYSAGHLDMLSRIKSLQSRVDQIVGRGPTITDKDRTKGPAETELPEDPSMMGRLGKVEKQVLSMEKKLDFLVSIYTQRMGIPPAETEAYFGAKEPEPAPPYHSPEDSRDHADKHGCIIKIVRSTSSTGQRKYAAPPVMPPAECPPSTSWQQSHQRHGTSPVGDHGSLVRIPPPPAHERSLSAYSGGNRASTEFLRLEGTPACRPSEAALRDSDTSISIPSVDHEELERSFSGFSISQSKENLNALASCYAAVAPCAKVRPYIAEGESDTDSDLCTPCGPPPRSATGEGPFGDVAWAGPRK
# KCNQ2 inh baseline: also measured in KCNQ2 inh; calls as there; B-score; measured here: initial fluorescence intensity artifact check;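 brightness before thallium and not channel activity; 0 = typical well and far values either way flag optical interference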
# Starred values were filed as active, the others as inactive; i = inactive. Not all compounds are listed; rates above refer to the full screens.
KCNQ2 inh	KCNQ2 inh baseline	canonical_smiles
i	0.03	O=C(O)c1cc(N2CCOCC2)nc2ccccc12
i	-0.06	CC(=O)c1ccc(N(C(=O)c2csnn2)C(C(=O)NC(C)(C)C)c2cccs2)cc1 (configuration not stated)
i	0.72	O=C1[C@H]2[C@@H](c3ccc(F)cc3)N3C(=O)N(c4ccc(Br)cc4)C(=O)[C@@]3(Cc3ccc(Cl)cc3)[C@H]2C(=O)N1C1CCCCC1
i	-0.17	CSc1c(SCc2ccccc2)cnn(Cc2ccccc2)c1=O
i	1.3	CCOc1[nH]n(-c2ccccc2)c(=O)c1C=Nc1ccccc1
i	-0.65	Cn1nc(-c2ccccc2)c(N2CCCCC2)cc1=O
i	-1.14	O=C(Nc1nnc(C(F)(F)F)s1)C1COc2ccccc2O1 (configuration not stated)
i	0.82	O=C(CN(Cc1ccccc1)S(=O)(=O)c1ccc(F)cc1)NCc1ccccn1
i	1.23	CC(C)(C)OC(=O)N1CCC[C@H]1c1nnc(SCc2cccc(Cl)c2)o1
i	-0.34	COCCCNCC(=O)c1c(N)n(Cc2ccccc2)c(=O)n(C)c1=O
i	1.47	O=C(NCC(c1ccco1)N1CCc2ccccc21)c1cccc([N+](=O)[O-])c1 (configuration not stated)
i	0.9	Cc1ccc(-n2ncc(N(C)C)c(Cl)c2=O)cc1
i	-0.82	Cc1ccc(NS(=O)(=O)c2cc(C(=O)N3CCCC3)ccc2C)cc1C
i	-1.62	Cc1ccc(NC(=O)c2cc(-c3cccs3)nc3ccccc23)nc1
i	0.03	O=C1c2sc3nc4c(c(=O)n3c2C(=O)N1c1ccccc1)CCC4
i	0.26	CC(=O)Nc1cccc(-c2csc(Nc3ncccn3)n2)c1
i	-0.9	CC(=O)Nc1ccc2nc(CN3CCC(CO)(CCc4ccccc4)CC3)ccc2c1
i	-1.83	O=C(c1ccc(Cl)cc1)N1CCC(=O)N(C(CO)Cc2ccccc2)CC1 (configuration not stated)
i	-0.89	Cc1ccccc1NC(=O)c1cc(S(=O)(=O)N2CCOCC2)ccc1F
i	1	CS(=O)(=O)N(CC(=O)NCc1cccnc1)Cc1ccc(Cl)cc1
i	1.02	CC[C@@]12C(=O)N(c3cccc(Br)c3)C(=O)N1[C@H](c1cccc(C)c1)[C@@H]1C(=O)N(Cc3ccccc3)C(=O)[C@@H]12
i	1.12	Cc1cccc(NC(=O)CCN2C(=O)C3C4CCC(C4)C3C2=O)c1C (configuration not stated)
i	1.15	COc1cc(CNCCCN2CCOCC2)ccc1OCC(=O)Nc1cccc(C(F)(F)F)c1
-5.78*	-2.08*	COc1ccc(CN(CCC(c2ccc(F)cc2)C2CCOC(C)(C)C2)C(=O)c2ccco2)cc1 (configuration not stated)
i	-0.53	N#Cc1cccc(NC(=O)CN2NS(=O)(=O)c3ccccc3C2=O)c1
i	-0.1	Cc1nn(-c2ccccc2)c(C)c1NC(=O)COC(=O)c1ccc(O)cc1O
i	0.67	CCOC(=O)c1cnc(-c2ccccc2)nc1N1CC(C)OC(C)C1 (configuration not stated)
i	0.59	CC(C)n1c(SCC(=O)N2c3ccccc3Sc3ccccc32)nc2c1c(=O)n(C)c(=O)n2C
i	0.49	Cc1csc(NC(=O)c2cccc(S(=O)(=O)N3CCCCC3)c2)n1
i	-0.57	N#CC(c1ccccc1)c1ccc(C(=O)c2ccc(F)cc2)cc1 (configuration not stated)
i	-0.17	CC(C)CCn1c(COc2ccccc2)nn(CCC#N)c1=S
i	2.67	CCN(Cc1ccccc1)Cc1ccc(OCc2ccccc2)cc1
i	-1.3	CN(C)Cc1n[nH]c(=O)c2ccccc12
i	-0.52	Cc1ccc(OCCCCN(C)Cc2ccccc2)c(Br)c1
i	-2.66	Fc1ccc(-n2c(-c3ccco3)n[nH]c2=S)cc1
i	-0.79	Cc1cc(=O)[nH]c(SCC(=O)NNC(=O)Cc2ccccc2)n1
i	-1.08	Cc1cc(C)nc(SCC(=O)Nc2nccs2)n1
i	-2.23	Cc1cc(C(=O)COc2ccc([N+](=O)[O-])cc2)c(C)n1C1CC1
i	-0.03	CCOC(=O)C1C(C(=O)OCC)C1(c1ccccc1)c1ccccc1 (configuration not stated)
i	1.99	COc1ccccc1CNC(=O)[C@@H]1CCCN1C(=O)[C@@H]1Cc2ccccc2CN1C(=O)OC(C)(C)C
i	0.4	O=C(CSc1ccccn1)Nc1nncs1
i	2.12	CCc1cccc(CC)c1NC(=O)/C(C#N)=C/c1ccccc1C(F)(F)F
i	0.18	CN(C)c1nc(N)nc(CSc2nnnn2-c2ccc(C(=O)O)cc2)n1
i	0.97	CC(C)c1ccc(/C=C2\C(=O)N(CCN3CCOCC3)C(=S)N2C)cc1
i	0.67	N#Cc1ccccc1S(=O)(=O)N1CCN(c2cnccn2)CC1
i	0.38	COc1ccccc1N=Nc1nc(-c2ccccc2)c(-c2ccccc2)[nH]1
i	0.32	CN(c1ccccc1)S(=O)(=O)c1ccc(C(=O)NCC2CCCO2)cc1 (configuration not stated)
i	0.78	C/C(=N\NC(=S)Nc1cccc(C)c1)c1cccc(N)c1
i	0.92	NC(=S)N/N=C/c1coc2ccc(Cl)cc2c1=O
i	-0.75	CCc1nc2ccccc2n(CCOCCOCCn2c(=O)c(CC)nc3ccccc32)c1=O
i	-2.23	O=C(Cc1c[nH]c2ccccc12)N/N=C/c1ccccc1O
i	1.22	COc1ccc(C(CNC(=O)c2ccc(-c3ccccc3Cl)o2)N2CCOCC2)cc1 (configuration not stated)
i	1.04	COc1cccc(CNC(=O)C2CCCN(c3ncnc4c3nc3n4CCCCC3)C2)c1 (configuration not stated)
i	1.16	CCOCCSC1=C(C#N)C(c2cccs2)C(C(C)=O)=C(C)N1 (configuration not stated)
i	-0.04	CN(CC(=O)Nc1cccc(C#N)c1)Cc1ccc(Cl)cc1
i	0.74	COc1ccccc1CC(=O)Nc1ccc([N+](=O)[O-])cc1OC
i	-1.83	O=C(N/N=C/c1cn(-c2ccccc2)nc1-c1cccs1)c1ccc(Cl)cc1
i	0.8	Cc1cccc(NS(=O)(=O)c2ccc(C(=O)NCC3(N4CCCCC4)CCCCC3)cc2)c1C
i	0.39	Cc1ccc(C(=O)Nc2cc(C)nn2CCC#N)cc1
i	0.43	N#Cc1cc([N+](=O)[O-])ccc1NC(=O)COC(=O)C12CC3CC(CC(C3)C1)C2

# Carrying on.
KCNQ2 inh	KCNQ2 inh baseline	canonical_smiles
i	-1.33	COc1cc(OC)c(NC(=O)c2sc3ncn(CC(=O)N4CCOCC4)c(=O)c3c2C)cc1Cl
i	-0.82	Cc1ccc(N2C(=O)CSC2c2cccs2)cc1 (configuration not stated)
i	-2.2	O=C(COc1ccc(Cl)cc1)Nc1nc(-c2ccncc2)cs1
i	-0.64	COc1ccccc1Oc1ccc(NC(=O)c2ccccc2)cc1
i	0.02	COc1ccc(CNC(=O)CN(C(=O)c2csnn2)c2cccc(F)c2)cc1
i	2.04	O=C(NCC(c1cccnc1)N1CCN(c2ccc(F)cc2)CC1)c1ccc(F)cc1 (configuration not stated)
i	0.02	O=C(c1ccco1)N1CCN(c2ccc([N+](=O)[O-])cn2)CC1
i	-1.64	O=C(NCc1ccccc1)c1ncn[nH]1
i	1.68	O=C(CSc1nc2ccccc2n1-c1ccccc1)Nc1ncc(Cl)cc1Cl
i	-1.67	Cc1cc(C)c2cc(CN(CCO)C(=O)Nc3ccc(Cl)cc3)c(=O)[nH]c2c1
i	1.64	CCOC(=O)CSc1nnc(CNC(=O)c2cc(OC)c(OC)c(OC)c2)n1C
i	-1.61	Cc1cc(C)n(CCNC(=O)CC2C(=O)NCCN2CC2CCCCC2)n1 (configuration not stated)
i	-1.3	COC1CCCCC1Nc1cc(C)cc(C)c1 (configuration not stated)
i	-1.85	CC(=O)N1CC(=O)N(CC(=O)Nc2ccc(Br)cc2)C1=S
i	-0.78	O=C1COc2ccc(C(=O)/C=C/c3ccccc3)cc2N1
i	0.37	CCOC(=O)C1(Cc2ccc(OC)cc2)CCN(C(=O)c2ccoc2C)CC1
i	0.43	Cc1ccc(NC(=S)N2CCN(S(=O)(=O)c3ccc(F)cc3)CC2)cc1
i	1.93	CCC(=O)c1ccc(OCC(=O)OCC(=O)N2c3ccccc3NC(=O)C2(C)C)cc1
-6.8*	-0.57*	COc1ccc(CN(C)C(C)C(=O)NC2CCCc3ccccc32)cc1 (configuration not stated)
i	1.27	N#C/C(=C1/CCCCCN1)c1nnc2n1CCCCC2
i	0.82	Cc1c(NC(=O)c2ccc(S(=O)(=O)N3CCOCC3)cc2)cccc1[N+](=O)[O-]
i	-0.12	CC(=O)Oc1ccc(C2(C)CC(C)(C)Oc3cc(OC(C)=O)ccc32)c(OC(C)=O)c1 (configuration not stated)
i	-0.01	Cc1ccc(C)c(S(=O)(=O)N2CCN(C(=O)c3sccc3C)CC2)c1
i	2.29	CS(=O)(=O)N(CC(=O)N1CCOCC1)c1ccc(Cl)cc1
i	0.03	O=C(CCCCCNC(=O)N1CCn2c1nc1ccccc12)N[C@@H](Cc1ccccc1)C(=O)O
i	0.9	COc1ccc(/C=C(/C#N)C(=O)Nc2cc(C)ccc2C)cc1C(=O)O
i	-0.01	CC(=O)N(CC1CCCO1)C1(C(=O)NC2CCCC2)CCCCC1 (configuration not stated)
i	-0.53	CC(=O)N1CCCc2cc(S(=O)(=O)N3CCCC(C(=O)NCc4ccc(Cl)cc4)C3)ccc21 (configuration not stated)
i	-1.12	Cn1c(=O)[nH]c(=O)c2c1nc(N1CCCCCC1)n2CCSc1nc2ccccc2[nH]1
i	-0.18	CCCCC(=O)N(c1ccc(C)c(C)c1)C1C=CS(=O)(=O)C1 (configuration not stated)

# Looked up one by one from the list above:
KCNQ2 inh	KCNQ2 inh baseline	canonical_smiles
i	-0.01	Cc1ccc(C)c(S(=O)(=O)N2CCN(C(=O)c3sccc3C)CC2)c1
i	-1.61	Cc1cc(C)n(CCNC(=O)CC2C(=O)NCCN2CC2CCCCC2)n1 (configuration not stated)
i	1.27	N#C/C(=C1/CCCCCN1)c1nnc2n1CCCCC2
i	-1.08	Cc1cc(C)nc(SCC(=O)Nc2nccs2)n1

# Continuation:
KCNQ2 inh	KCNQ2 inh baseline	canonical_smiles
i	1.91	CC(C)CC(NC(=O)/C(=C\c1ccco1)NC(=O)c1ccco1)C(=O)O (configuration not stated)
i	0.06	Cc1ccc(NC(=O)N(C2CCCCC2)C(C)c2cccnc2)cc1C (configuration not stated)
i	0.89	CCCc1ccc(OCC(=O)NNC(=S)NC(=O)c2ccco2)cc1
i	0.85	COc1ccc(/C=N/N=C(\N)c2nonc2N)cc1
i	-1.24	CCN1C(C)=C(C)S/C1=C1\SC(=S)N(NC(C)=O)C1=O
i	-0.01	COc1ccc(/C=N/Nc2nnc(Cc3ccc(OC)c(OC)c3)c(=O)[nH]2)cc1
i	2.32	COc1ccc(NC(=O)C2C3C=CC(C3)C2C(=O)NCc2ccco2)c(OC)c1 (configuration not stated)
i	1.94	CC(=O)NCCC(=O)Nc1cc(S(=O)(=O)N2CCCCC2)ccc1N1CCN(C)CC1
i	-1.13	CCOc1cc(C(=O)Nc2cccc3ncccc23)cc(OCC)c1OCC
i	0.46	NC(=O)c1cc(NC(=O)CCCc2nc3ccccc3s2)cc(C(N)=O)c1
i	0.66	CN(C(=O)c1ccccc1Br)C1CCS(=O)(=O)C1 (configuration not stated)
i	-0.9	COc1ccc2nc(Nc3nc4ccc(NC(C)=O)cc4s3)sc2c1
i	-0.57	CCC(=O)N1CCN(c2ccc(NC(=O)c3cc4ccccc4o3)cc2Cl)CC1
i	0.04	Cc1cccc(OC(=O)c2sc(Cl)nc2C)c1
i	0.25	COc1ccccc1Cn1c(=S)[nH]c2cc(C(=O)NCC(OC)OC)ccc2c1=O
i	1.18	CSc1ccc(Cc2ccc(Cl)cc2Cl)nn1
i	1.4	C=CCNC(=S)NNC(=O)CCC(O)COCCC(C)C (configuration not stated)
i	-0.53	COC(=O)c1ccccc1OCCOc1ccccc1C(=O)OC
i	0.87	CCn1c(O)c2ccc(C(=O)N=NC(=O)c3ccccc3)cc2c1O
i	-0.4	C[C@]12C=CC(=O)C=C1CC[C@@H]1C2[C@@H](O)C[C@@]2(C)C1CC[C@]2(O)C(=O)COC(=O)CCC(=O)O (some centres not stated)
i	-1.61	Cc1cc(N2C(=O)C(O)=C(C(=O)c3cccs3)C2c2ccc(F)cc2)no1 (configuration not stated)
i	0.01	CCOc1ccccc1NC(=O)[C@@H](NC(=O)c1ccccc1F)C(C)C
i	0.06	CCc1ccccc1N(CC)C(=O)c1cn(CC)c(=O)c2cc(OC)c(OC)cc12
i	2.48	COCC(C)NC(=O)CSc1nc2nn(-c3ccccc3)c(=O)c-2c2n1CCCCC2 (configuration not stated)
i	0.33	COc1ccc(-c2nnn(CC(=O)N(CCCN3CCOCC3)C(C(=O)NC3CCCC3)c3ccco3)n2)cc1 (configuration not stated)
i	-0.42	CCOC(=O)c1sc(NC(=O)CSc2nnc(Cc3ccccc3)o2)c(C(=O)OCC)c1C

# By substructure: the compounds so far containing two or more sulfur atoms.
KCNQ2 inh	KCNQ2 inh baseline	canonical_smiles
i	-0.06	CC(=O)c1ccc(N(C(=O)c2csnn2)C(C(=O)NC(C)(C)C)c2cccs2)cc1 (configuration not stated)
i	-0.17	CSc1c(SCc2ccccc2)cnn(Cc2ccccc2)c1=O
i	0.59	CC(C)n1c(SCC(=O)N2c3ccccc3Sc3ccccc32)nc2c1c(=O)n(C)c(=O)n2C
i	0.49	Cc1csc(NC(=O)c2cccc(S(=O)(=O)N3CCCCC3)c2)n1
i	-1.08	Cc1cc(C)nc(SCC(=O)Nc2nccs2)n1
i	0.4	O=C(CSc1ccccn1)Nc1nncs1
i	1.16	CCOCCSC1=C(C#N)C(c2cccs2)C(C(C)=O)=C(C)N1 (configuration not stated)
i	-0.82	Cc1ccc(N2C(=O)CSC2c2cccs2)cc1 (configuration not stated)
i	0.43	Cc1ccc(NC(=S)N2CCN(S(=O)(=O)c3ccc(F)cc3)CC2)cc1
i	-0.01	Cc1ccc(C)c(S(=O)(=O)N2CCN(C(=O)c3sccc3C)CC2)c1
i	-1.24	CCN1C(C)=C(C)S/C1=C1\SC(=S)N(NC(C)=O)C1=O
i	-0.9	COc1ccc2nc(Nc3nc4ccc(NC(C)=O)cc4s3)sc2c1
i	-0.42	CCOC(=O)c1sc(NC(=O)CSc2nnc(Cc3ccccc3)o2)c(C(=O)OCC)c1C
